High-throughput results: PubChem BioAssay, National Center for Advancing Translational Sciences (NCATS)
Vaccinia mCherry – vaccinia inhibition (mCherry reporter) | Potency, µM (titrated, usually from 36.5 µM), inactives show at the highest dose activity change, negative = inhibition, most hits filed as inhibitors | Vaccinia virus mCherry reporter infection, fluorescence; about a quarter of the inactives have no number | hit rate 0.63% among 310,000 | AID 720579; active = well fitted inhibition curve with a large enough effect; inconclusive = small, poorly fitted or top-dose-only effect; inactive = no such curve, though single readings can be large or run the other way; tested in A549 cells; further: nearly all actives have a fitted effect of over 35% in size; inactives centre near -10
VACV Venus inh – inhibitors of vaccinia virus (Venus reporter); Vaccinia virus Venus reporter expression, fluorescence; Potency, µM (titrated, usually from 36.5 µM), for the others: at the top dose activity change, negative = inhibition, most hits filed as inhibitors; hit rate 0.46% among 330,000; active means well fitted inhibition curve with a large enough effect; inconclusive means small, poorly fitted or top-dose-only effect; inactive means no such curve, though single readings can be large or run the other way; tested in A549 cells; further: nearly all actives have a fitted effect of over 30% in size; inactives centre near -10
* hit, by the source's call; i = inactive; ? = inconclusive; nt = not tested or not shown; & = joins results of further samples; [ ] = remark or other dose. On the % scale 0 is the no-effect control and ±100 the full control effect; potency means the concentration at half of the fitted maximal effect. Not a hit list. Share with any hit: about 0.86%.

SMILES	Vaccinia mCherry	VACV Venus inh
Cc1ccc(NC(=O)C2CCN(S(=O)(=O)c3ccc4c(c3)CCCC(=O)N4)CC2)c(Br)c1	-8%	-19%&-2%
CN(C(=O)COC(=O)CSc1ccc(C(N)=O)cc1[N+](=O)[O-])C1CCCCC1	-12%	-7%
Cc1ccc(N2C(=O)CC3(CCCC3)CC2=O)cc1	-6%[7.34 µM]	-7%[7.34 µM]
C[n+]1cc(C(=O)N2CCCCC2)ccc1/C=C/c1c[nH]c2ccccc12	?	56%[activator]
CCCn1c(NC(=O)C2CCN(C(=O)c3ccc(F)cc3)CC2)nc2ccccc21	-14%	-25%
COc1ccccc1NC(=O)NC1(C)CCS(=O)(=O)C1 (stereo not given)	-26%	-5%
COc1ccc(-c2nc(C#N)c(N3CCCCCC3)o2)cc1	-7%	-4%
COc1ccc(/C=C/c2nc(C#N)c(NCCc3ccccc3)o2)cc1OC	-3%	6%
Cc1c(CN2CCOc3c(O)cc(-c4nc5ccccc5s4)cc3C2)cnn1C	-25%	-13%
CN(CC(=O)Nc1ccccc1C(F)(F)F)C(=O)c1ccc(N2C(=O)CCC2=O)cc1	-13%	-2%
COc1cc(C(=O)N2CCN(C/C=C/c3ccccc3)CC2)cc(OC)c1C	-18%	-12%
Cc1c(NC(=O)C(C)(C)Oc2ccc(Cl)cc2)cccc1-c1nc2ccccc2o1	-18%	-15%
O=[N+]([O-])c1ccc2nc(-c3ccccc3)[nH]c2c1	-17%	-19%
COc1ccccc1CC(=O)Nc1ccc(NC(=O)c2cccs2)cc1	-16%	-19%
CCc1ccc(CN2CCN(C(=O)Cc3ccccc3)CC2)cc1	i	-20%
N#C/C(=C/c1cn[nH]c1-c1ccc(Br)cc1)C(=O)O	i	-8%
CNCC/C=C/c1cccnc1	0%	-9%
O=C(CCCn1c(=O)c2cccn2c2ccccc21)Nc1cccc(Cl)c1	-13%	-9%
Cc1ccc(/C=C2\SC(=S)N(CC(=O)Nc3cccnc3)C2=O)cc1	i	-2%
O=C1c2ccccc2C(=O)N1CCCP(=O)(O)CCc1ccccc1	nt	-20%
CS/C(N)=N/C(=S)Nc1cccc(Cl)c1	-14%	3%
CNC(=O)c1ccc(Nc2nnc(-c3ccc(C)c(S(=O)(=O)N4CCOCC4)c3)c3ccccc23)cc1	-11%	-11%
Cn1c(O)c(N=NC(=O)CNC(=O)c2ccccc2)c2ccccc21	?	10%
COc1ccc(S(=O)(=O)N2CCOCC2)cc1NC(=O)CCOc1ccc(C(C)(C)C)cc1	-15%	-10%
COc1ccc(-c2cc(C(=O)N3CCN(Cc4ccc5c(c4)OCO5)CC3)on2)cc1OC	9%[7.34 µM]	8%[7.34 µM]
Cc1ccc(NC(=O)CSCc2cnn(-c3ccccc3)c2-n2cccc2)c(Cl)c1	2%	-6%
Cc1ccc(CN2CCC(CNC(=O)Nc3c(C)cccc3C)C2)cc1 (stereo not given)	-15%	-9%
CCOC(=O)c1ccc(S(=O)(=O)Nc2cc(C(=O)O)ccc2Cl)cc1	-5%	-4%
Cc1cc2nc(NC(=O)c3ccc(S(=O)(=O)N4CCOCC4)cc3)sc2cc1C	-6%	-7%
S=C(c1cn(CCOc2cccc3ccccc23)c2ccccc12)N1CCCC1	i	-15%

Laid out differently: entries from further up.
Cc1cc2nc(NC(=O)c3ccc(S(=O)(=O)N4CCOCC4)cc3)sc2cc1C
- Vaccinia mCherry: -6%
- VACV Venus inh: -7%

S=C(c1cn(CCOc2cccc3ccccc23)c2ccccc12)N1CCCC1
- Vaccinia mCherry: i
- VACV Venus inh: -15%

Cc1ccc(NC(=O)CSCc2cnn(-c3ccccc3)c2-n2cccc2)c(Cl)c1
- Vaccinia mCherry: 2%
- VACV Venus inh: -6%

COc1ccc(-c2cc(C(=O)N3CCN(Cc4ccc5c(c4)OCO5)CC3)on2)cc1OC
- Vaccinia mCherry: 9%[7.34 µM]
- VACV Venus inh: 8%[7.34 µM]

(listing goes on)
SMILES	Vaccinia mCherry	VACV Venus inh
C[C@@H](C(=O)Nc1ccc2ccccc2c1)[C@@H]1C[C@@]1(C)[C@@H](NC(=O)c1ccccc1)c1ccccc1	-5%	-21%
COc1ccccc1-n1c(CNC(=O)c2ccco2)nnc1SCC(=O)Nc1cc(C)ccc1C	-12%	-4%
O=C(c1ccccc1)N1CCC(c2nc3c(nnn3Cc3ccccc3Cl)c(=O)[nH]2)CC1	i	-17%
CCOC(=O)c1ccc(NC(=O)C(C)Sc2nc(=O)cc(N)n2CCc2ccccc2)cc1 (stereo not given)	3%	1%
CSCC(=O)N1CCCC(CO)(CCCc2ccccc2)C1 (stereo not given)	-11%	-15%
COc1cccc(/C=N\NC(C)=O)c1OC/C=C/c1ccccc1	-10%	-15%
CCOC(=O)Oc1ccc(C(=O)OCCCN(C)C)cc1OC	-25%	-11%
CC(=O)c1ccc(OCC(=O)NCC(c2ccco2)N2CCCCC2)cc1 (stereo not given)	-10%	-1%
O=C(CCc1ccccc1)N[C@@H]1c2ccccc2CC[C@@H]1OCc1ccccc1	i	-13%
Cc1ccc(C)c(N2CCN(CCCNC(=O)c3cnn(-c4ccccc4Cl)c3C3CCN(C(=O)OC(C)(C)C)CC3)CC2)c1	?	?
O=C(Nc1cc(Cl)ccc1F)c1ccc(-n2cncn2)c([N+](=O)[O-])c1	i	-3%
O=C(Nc1ccnc(-c2cccnc2)n1)c1ccccc1Cl	nt	-17%
Cc1ccc(C)c(NC(NC(=O)c2cccnc2)C(Cl)(Cl)Cl)c1 (stereo not given)	i	-19%
Cc1ccc(Cn2nnc3c(=O)n(Cc4cccc(C)c4)cnc32)cc1	-11%	-5%
C[C@H](CO)N1C[C@H](C)[C@@H](CN(C)S(=O)(=O)c2ccccc2)OCc2cnnn2CCCC1=O	i	9%
Cc1cccc(C)c1NC(=O)CN(C)C(=O)CSCc1c(C)noc1C	-3%	-14%
O=C1CCCC2=C1C(c1ccncc1)Nc1ccccc1N2 (stereo not given)	nt	-19%
CCc1ccc(C(=O)NNC(=O)CCN2CCN(Cc3ccccc3)CC2)cc1	-28%	-21%
CCCCC/C=C\C=C\[C@H](CCCCCCCC(=O)O)OO	-20%[0.293 µM]	-22%[0.293 µM]
CCOc1ccccc1NS(=O)(=O)c1cccc2nsnc12	-16%	-14%

Reformatted in CSV form: entries from further up
canonical_smiles,Vaccinia mCherry,VACV Venus inh
Cc1ccc(Cn2nnc3c(=O)n(Cc4cccc(C)c4)cnc32)cc1,-11%,-5%
CCCCC/C=C\C=C\[C@H](CCCCCCCC(=O)O)OO,-20%[0.293 µM],-22%[0.293 µM]
Cc1cccc(C)c1NC(=O)CN(C)C(=O)CSCc1c(C)noc1C,-3%,-14%
O=C(Nc1ccnc(-c2cccnc2)n1)c1ccccc1Cl,nt,-17%

Carrying on.
SMILES	Vaccinia mCherry	VACV Venus inh
Cc1ccc(/C=N\NC(=O)CC(=O)NCCc2ccccc2)cc1	-4%	-13%
C[C@@H](NS(=O)(=O)c1ccc(Br)cc1F)[C@@H](O)c1ccccc1	-6%	-7%
Cc1ccc(NC(=O)C2CC(=O)N(C(C)C)C2)cc1C (stereo not given)	i	-16%
COc1ccccc1NC(=O)CSc1ncc2c(n1)-c1cc(Cl)ccc1N(Cc1ccccc1)S2(=O)=O	-6%	-6%
Cc1ccc(S(=O)(=O)Nc2ccccc2C(=O)N2CCCCC2C)c(C)c1NS(C)(=O)=O (stereo not given)	?	-12%
Cc1ccc(NC(=O)CN(C)C(=O)Cc2ccc3c(c2)CCC3)cc1	0%	-14%
O=C(CSc1nnc(-c2ccc(Cl)cc2)n1-c1ccccc1)N/N=C/c1ccccc1C(=O)O	-13%	4%
CC1CCCC(C)N1C(=O)COC(=O)c1ccc(F)c(S(=O)(=O)N2CCOCC2)c1 (stereo not given)	-7%	-6%
CC(=O)OCc1c(F)c(F)c(-n2nc(C)cc2C)c(F)c1F	nt	?
Cc1c(Cc2c(Cl)cccc2Cl)c(=O)ccn1C(C)c1ccccc1 (stereo not given)	?	?
COc1ccc(CCN2C(=O)c3[nH]nc(-c4ccccc4O)c3C2c2ccc(OC)c(OC)c2)cc1 (stereo not given)	-14%	?
Cc1ccc2c(c1)C1CN(C)CCC1N2C(=O)Nc1cccc(C(F)(F)F)c1 (stereo not given)	?	?
O=C(N/N=C/c1sc(=O)n(-c2ccccc2)c1Cl)c1ccncc1	-16%	2%
CCCN(Cc1cc2ccc(C)cc2[nH]c1=O)C(=O)c1cccnc1	-8%	-9%
COc1ccc(S(=O)(=O)N2CCN(C)CC2)cc1Br	-7%	-5%
COc1cccc(CNC(=O)Cn2ccc3cc(S(=O)(=O)N4CCCC4)ccc32)c1	-22%&-4%	-20%&-11%
O=C(Nc1ccc(Cl)cc1)c1cc2c(cc1O)[nH]c1ccccc12	?	?
COc1ccc(NC(=O)c2cc(S(=O)(=O)N3CCCCC3)cn2C)cc1Cl	-9%	-11%
CCn1nnnc1SCC(=O)Nc1nc2ccccc2s1	i	-13%
O=C(c1cccnc1Cl)N1CCOCC1	i	-4%
COc1ccc(/C=N/NC(=O)c2ccc3c(c2)OCCO3)c(OC)c1	-10%	-7%
CCOC(=O)N1CCN(c2c(N3CCN(c4ccc(F)cc4)CC3)c(=O)c2=O)CC1	i	-3%
COCCNC(=O)C1(C)CCCN(CCOc2ccc(Cl)cc2)C1 (stereo not given)	-1%	-8%
O=c1[nH]c(=O)n(C2C[C@H](O)[C@@H](CO)O2)cc1C(F)(F)F (stereo not given in full)	0.5µM*	?
Cc1cc(C)n2nc(SCc3nnc(-c4ccccc4Br)o3)nc2n1	-8%	-3%
O=C(Nc1ccc(N2CCOCC2)cc1)c1csc([C@H]2C[C@H](O)[C@@H](CO)O2)n1	-11%	-10%
O=C(Nc1ccc2oc(-c3cccnc3)nc2c1)c1ccccc1F	-14%	-13%
O=C(NCc1ccccc1)Nc1cccn(Cc2ccccc2F)c1=O	-5%	-11%
Cc1ccc(S(=O)(=O)N2CC3(O)CN(C(=O)OC(C)C)N(C(=O)OC(C)C)CC3(OC(=O)NCc3ccccc3)C2)cc1 (stereo not given)	i	?
COCCNC(=O)Cn1nc(C)c2c(C)n(-c3ccc(C)cc3)nc2c1=O	-9%	-6%
O=c1c(Cl)cc(Cl)nn1-c1ccccc1	-5%	-10%
CN(C)c1ccc(/C=N/NC(=O)c2ccc(CN3CCOCC3)cc2)cc1Br	-11%	-9%
COc1ccc(CCNC(=S)Nc2cc(C)cc(C)c2)cc1	nt	-30%
Cc1cccc(-c2noc(CN(C(=O)CCc3ccccc3)C(C)C)n2)c1	-2%	-4%
COCc1cc(=O)oc2cc(NS(=O)(=O)c3ccc(C)cc3)ccc12	i	-1%
O=C(N/N=C/c1cccc(F)c1)c1csc2c1CCCC2	nt	-19%
Cc1ccc(NC(=O)Cn2c(=O)n(CCC(=O)NCc3ccccc3Cl)c(=O)c3ccccc32)cc1	-2%	-11%
C=C(CC[C@@H](O)C(C)(C)O)[C@H]1CC[C@]2(C)[C@@H]1CCC1[C@@]3(C)CC[C@H](O)C(C)(C)C3CC[C@]12C (stereo not given in full)	i	-20%
CC1OC(Nc2cccc3ccccc23)C(O)C(O)C1O (stereo not given)	-1%	-14%
CCOC(=O)C(=O)NC(C)CCc1ccccc1 (stereo not given)	-11%	-16%
Cc1ccc(-c2nc3sc(C(N)=O)c(N)c3c3c2CCCC3)cc1	?	?
O=C1COc2ccc(-c3cc(-c4ccc(Cl)cc4)c4c(n3)-c3ccccc3OC4)cc2N1	?	?
Brc1ccc(C[n+]2ccccc2)cc1	-16%	-19%
CS(=O)(=O)N1CCC(c2noc(-c3ccc(C(F)(F)F)cc3)n2)CC1	nt	-23%
Cc1cccc(CN2CCN(C3CN(Cc4ccc(F)cc4)S(=O)(=O)C3)CC2)c1 (stereo not given)	i	-10%
Cc1cc(C)cc(Oc2coc3cc(OC(=O)c4cccs4)ccc3c2=O)c1	nt	-17%
CCCS(=O)(=O)NCc1ccc2c(c1)cc(C)n2C	i	37%[activator]
COC(=O)c1ccccc1OCCN1CCCCCC1	-8%	9%
CCN(CC)C(=O)Cn1cc(S(=O)(=O)CC(=O)Nc2cc(C)on2)c2ccccc21	-18%	-7%
COc1cccc(CNC(=O)[C@@H]2CCCN2C(=O)[C@H]2CCCCN2C(=O)c2cccc(OC)c2)c1	46%[activator]	-3%
Other compounds.
SMILES	Vaccinia mCherry	VACV Venus inh
CC1CCN(S(=O)(=O)c2ccc3c(ccc(=O)n3CC(=O)NCc3ccccc3Cl)c2)CC1	-12%	-4%
O=C(NCCc1cn2ccsc2n1)c1cccs1	i	-17%
CCOc1c(P(=S)(N(C)C)N(C)C)c(C)nn1-c1ccccc1	i[1.46 µM]	-17%
O=C(NCCc1csc(-c2ccc(F)cc2)n1)c1c(F)cccc1Cl	i	-12%

Three compounds from above, ordered by length of the SMILES, rising:
SMILES	Vaccinia mCherry	VACV Venus inh
O=C(NCCc1csc(-c2ccc(F)cc2)n1)c1c(F)cccc1Cl	i	-12%
CCN(CC)C(=O)Cn1cc(S(=O)(=O)CC(=O)Nc2cc(C)on2)c2ccccc21	-18%	-7%
CC1CCN(S(=O)(=O)c2ccc3c(ccc(=O)n3CC(=O)NCc3ccccc3Cl)c2)CC1	-12%	-4%
